# Cruzain inh Det = cruzain (T. cruzi) inhibition with detergent. Potency, µM, inactives show max response, negative = inhibition, hits mostly inhibitors. P25779. AID 1478. purified cruzain, Z-FR-AMC fluorescence, 0.01% Triton. actives 0.43% (n = 200,000);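 also: plate controls were neutral wells for no effect and buffer without enzyme for full effect; nearly all actives have a fitted effect of over 40% in size; top concentration of the series not given in the record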
# Target sequence (P25779 123-467 limits assumed): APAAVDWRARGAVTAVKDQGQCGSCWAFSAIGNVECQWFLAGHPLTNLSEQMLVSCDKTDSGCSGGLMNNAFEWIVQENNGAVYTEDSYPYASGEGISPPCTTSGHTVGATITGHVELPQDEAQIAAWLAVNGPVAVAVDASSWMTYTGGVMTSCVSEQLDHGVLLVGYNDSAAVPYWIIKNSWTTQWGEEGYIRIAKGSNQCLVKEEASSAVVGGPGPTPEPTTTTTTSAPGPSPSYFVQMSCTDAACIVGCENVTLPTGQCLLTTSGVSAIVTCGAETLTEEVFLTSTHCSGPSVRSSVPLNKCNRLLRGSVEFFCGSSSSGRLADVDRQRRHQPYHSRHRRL
#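 Cruzain (1.5 nM) preincubated 15 min at RT with compound in 100 mM sodium acetate pH 5.5, 5 mM DTT, 0.01% Triton X-100. Reaction started with 2 uM Z-FR-AMC; AMC fluorescence (ex 360/em 450 nm) change over 60 s gave rate.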
# Lassa entry inh = Lassa virus entry inhibition; actives 1.2% (n = 300,000); Potency, µM (series often up to 37.9 µM), for inactives: at the top dose activity change, negative = inhibition, most hits filed as inhibitors; Lassa virus pseudotype entry inhibition, cell reporter; control for the full effect not named in the record; active means well fitted inhibition curve with a large enough effect; inconclusive means small, poorly fitted or top-dose-only effect, or effect the other way; inactive means flat fitted curve, though single readings scatter; tested in HEK293 cells; also: % is scaled to controls: 0 for no effect and ±100 for the full control effect; nearly all actives have a fitted effect of over 50% in size; luciferase read-out
# 2A StopGo = FMDV 2A StopGo reporter, luciferase signal; human cells with a luciferase reporter of 2A StopGo recoding; control for the full effect not named in the record; Potency, µM (top dose mostly 57.9 µM), for the others: top-dose signal change, negative = less light; actives 1.2% (n = 410,000); AID 1159524; active = well fitted falling curve with a large enough effect; inconclusive = small, poorly fitted or top-dose-only effect; inactive = no such curve, though single readings can be large or run the other way; tested in HEK293T cells; also: % is scaled to controls: 0 for no effect and ±100 for the full control effect; nearly all actives have a fitted effect of over 45% in size; luciferase light after 4 h
# MARV entry inh = Marburg virus entry inhibition; Marburg virus pseudotyped entry inhibition, cell reporter; control for the full effect not named in the record; about a third of the inactives were read at about 46 µM; AID 540276; Potency, µM (highest dose often 37.8 µM), inactives show top-dose activity change, negative = inhibition, usual class: inhibitors; actives 1.8% (n = 300,000); active = well fitted inhibition curve with a large enough effect; inconclusive = small, poorly fitted or top-dose-only effect, or effect the other way; inactive = flat fitted curve, though single readings scatter; tested in HEK293 cells; about a fifth of its hits are not listed in these tables; also: % is scaled to controls: 0 for no effect and ±100 for the full control effect; luciferase read-out
# SARS PLpro yeast = inhibitors of SARS-CoV papain-like protease in yeast; S. cerevisiae expressing SARS-CoV PLpro, growth rescue; control for the full effect not named in the record; Potency, µM (doses to about 32.9 µM), for the others: at the top dose activity, positive = growth rescue; actives 0.19% (n = 330,000); AID 485353; active means well fitted rising curve with a large enough effect; inconclusive means small, poorly fitted or top-dose-only effect; inactive means no such curve, though single readings can be large or run the other way; also: 0% is about no effect; nearly all actives have a fitted effect of over 55% in size; growth read by luminescence after 48 h
# RE007 growth inh = less growth of the S. pombe RE007 Vpr strain | S. pombe RE007 Vpr strain, BacTiter-Glo ATP luminescence, 24 h; control for the full effect not named in the record | Potency, µM (series often up to 92.2 µM), for the others: at the top dose activity change, negative = less growth | actives 0.21% (n = 360,000) | AID 651644; active = well fitted falling curve with a large enough effect; inconclusive = small, poorly fitted or top-dose-only effect; inactive = no such curve, though single readings can be large or run the other way;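 also: % is scaled to controls: 0 for no effect and ±100 for the full control effect; nearly all actives have a fitted effect of over 50% in size; the assay follows cell death caused by Vpr and the record does not say whether a fall means rescue or toxicity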
#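 Fission yeast strain RE007, carrying one chromosomally integrated HIV-1 vpr copy, was seeded at OD 0.01 in PMG+AL medium with 23 nL pinned compound. After 24 h at 30 °C and 99% humidity, viability was read by BacTiter-Glo luminescence.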
# NS1 inh = influenza NS1 inhibition. S. cerevisiae slowed by influenza A NS1, growth recovery by OD600. Potency, µM (top dose mostly 46.1 µM), inactives show at the highest dose activity, positive = more growth. actives 0.4% (n = 270,000); active means well fitted rising curve with a large enough effect; inconclusive means small, poorly fitted or top-dose-only effect; inactive means no such curve, though single readings can be large or run the other way; also: nearly all actives have a fitted effect of over 50% in size
#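 Read-out: OD600 growth recovery of NS1-expressing budding yeast. Cells grown overnight at 30C in -URA glucose medium, washed, resuspended and diluted 1:100 in 2% galactose assay medium, pH 6.0. Same strain lacking NS1 served as positive control.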
# Cruzain inh noDet = inhibitors of Trypanosoma cruzi cruzain without detergent. purified cruzain, Z-FR-AMC fluorescence, no detergent. Potency, µM, inactives show max response, negative = inhibition, hits mostly inhibitors. AID 1476. actives 2.3% (n = 200,000);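 also: plate controls were enzyme without inhibitor for no effect and buffer without enzyme for full effect; nearly all actives have a fitted effect of over 40% in size; top concentration of the series not given in the record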
#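 Purified cruzain at 1.5 nM, pre-incubated 15 min with compound at room temperature in 100 mM sodium acetate pH 5.5, 5 mM DTT, 0.00005% Triton X-100. Reaction started with 2 uM Z-FR-AMC; AMC fluorescence increase over 60 s gives rate.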
# An asterisk follows results filed as active; ? = inconclusive; · = not tested or not shown; [ ] = remark or other dose. Unless noted, calls follow the shape of the dose curve; as a rule, active = well fitted curve in the direction sought with a large enough effect; inconclusive = small, poorly fitted or top-dose-only effect, or another doubt; inactive = no such curve, though single readings can be large; an effect the other way counts as inactive or inconclusive. Potency is read from the fitted curve at half-maximal effect. Rows are unselected; about 4.6% have a hit in one of these screens.
SMILES,Cruzain inh Det,Lassa entry inh,2A StopGo,MARV entry inh,SARS PLpro yeast,RE007 growth inh,NS1 inh,Cruzain inh noDet
c1nc(COc2nsnc2N2CCOCC2)cs1,3.1%,-4%,11%,9%,13%,-5%,2%,-16%
CCc1sc(Nc2ccc(Cl)cc2)nc1-c1cc2cccc(OC)c2oc1=O,-0.6%,-12%[46.1 µM],22%,·,·,·,·,?
CCCOc1ccc(NC(=O)CCC(=O)NC(C)c2ccccc2)cc1 (stereo not drawn),·,·,-22%,·,4%,-2%,-9%,·
CC(=O)C1=C(O)CC(C)(C)CC1=NCCc1nc2ccccc2[nH]1,·,-4%,-9%,2%,7%,-3%,·,·
Cc1cc(C(F)(F)F)nn1CCCNC(=O)c1cnccn1,6.0%,-10%[14.3 µM],4%,1%,5%,1%,-1%,1%
CCOC(=O)Cc1c(C)nc(-c2ccccc2)[nH]c1=O,5.8%,-12%,10%,1%,1%,1%,2%,4%
C#Cc1ccc([C@@H]2C=C(C(=O)O)O[C@H](OCc3ccc(CO)cc3)C2)cc1,·,·,-4%,·,-3%,0%,5%,·
CCOc1ccc(C(C)=O)cc1COC(=O)CCc1cc(OC)c(OC)c(OC)c1,·,1%[46.1 µM],12%,-3%[46.1 µM],3%,-2%,-15%,·
O=C(C[n+]1cccc(NC(=O)c2ccccc2)c1)c1cccc([N+](=O)[O-])c1,·,23%[46.1 µM],-6%,-26%[46.1 µM],19%,-7%,·,·
CCOc1cccc(CN2CCCC(C(=O)c3cc(Cl)ccc3OC)C2)c1O (stereo not drawn),·,?,23%,?,5%,-14%,0%,·
O=C(CN1C(=O)NC2(CCCCC2)C1=O)NCCC1=CCCCC1,1.5%,3%,·,-5%,-4%,8%,?,-7%
CC(=O)Nc1ccc(OCC(=O)c2ccc(C)cc2C)cc1,1.5%,-16%,-7%,12%,-3%,-6%,-75%,2%
CCCCc1c(C(=O)O)cc(OC)cc1C(=O)O,11%,8%,-14%,-10%,4%,-4%,?,8%
COc1ccnc2c1c(=O)n(Cc1ccccc1Cl)c(=O)n2C,·,·,-17%,·,-53%,5%,-22%,·
Cc1ccc(S(=O)(=O)N(Cc2ccc([N+](=O)[O-])cc2)C(=O)N2CCN(C)CC2)cc1,·,8%,-13%,18%,·,5%,·,·
N#C/C(C(=O)N1CCOCC1)=c1/s/c(=C\c2ccccn2)c(=O)n1-c1ccccc1,·,2%,-9%,-1%[46.1 µM],-1%,8%,-5%,·
O=C(CCc1nnc2ccc(NCc3ccco3)nn12)Nc1ccc(F)cc1F,·,·,-7%,·,2%,5%,-3%,·
O=C(NC1CC2CCCC(C1)N2Cc1cccs1)N1CCOCC1 (stereo not drawn),-0.4%,26%,-23%,-5%,3%,12%,-1%,4%
CC(C)(C)c1ccc(N2C(=O)CC(c3ccccc3)C2=O)cc1 (stereo not drawn),·,5%[46.1 µM],-3%,-1%[46.1 µM],1%,-4%,1%,·
CC1(c2nnc(-c3ccncc3)o2)CC(c2ccc(F)cc2)=NO1 (stereo not drawn),·,·,-17%,·,-2%,22%,-4%,·
CCC(=Nc1ccc2c(c1)CCC2)c1c(O)n(C)c(=O)n(C)c1=O,-0.3%,-16%,?,-15%,-2%,-2%,-11%,1%
CC(C)c1ccc(Nc2sc(C(=O)c3ccccc3)c(N)c2S(=O)(=O)c2ccccc2)cc1,-0.2%,?,-3%,·,·,·,·,4µM*
CC(=O)c1cccc(NC(=O)c2ccc3c(c2)CCN3S(=O)(=O)c2ccccc2)c1,-5.2%,?,?,-25%[46.1 µM],-4%,-5%,11%,-20%
C/C(=N\NC(=O)c1ccccn1)C12CC3CC(CC(C3)C1)C2,4.0%,5%,·,6%,-3%,5%,2%,1%
Cc1ccc(OCCCC(=O)NC(C)c2ccccc2)c(C)c1 (stereo not drawn),·,·,-8%,·,-2%,-10%,-9%,·

# Further structures:
SMILES,Cruzain inh Det,Lassa entry inh,2A StopGo,MARV entry inh,SARS PLpro yeast,RE007 growth inh,NS1 inh,Cruzain inh noDet
CCc1nc2ccccc2c(C(=O)NCc2ccc(OC)cc2)c1C,·,1%[46.1 µM],1%,?,-3%,-14%,·,·
O=C(Nc1cccc2cccnc12)c1cccc(N2C(=O)CCC2=O)c1,0.1%,5%,11%,-4%,-1%,17%,-13%,-7%
CCOc1cccc(C2c3c(oc4ccc(F)cc4c3=O)C(=O)N2CCc2ccc(OC)cc2)c1 (stereo not drawn),-1.2%,25%[46.1 µM],-10%,-1%[46.1 µM],·,·,·,-7%
CN1CCc2nc(SCc3ccc(Cl)cc3)c(C#N)c(-c3cccs3)c2C1,·,0%,-11%,-16%,·,-5%,·,·
COc1ccc(C(=O)NC(=S)Nc2cccc(Cl)c2N2CCOCC2)cc1[N+](=O)[O-],-6.2%,-5%,-19%,?,2%,6%,4%,-20%
O=c1c2c(-c3cccc([N+](=O)[O-])c3)ccnc2[nH]n1-c1ccccc1,·,·,6%,·,1%,0%,-2%,·
CCCC(=O)Nc1ccccc1C(=O)OCc1cc(=O)n2nc(C(C)C)sc2n1,4.2%,1%[46.1 µM],5%,·,·,·,·,-14%
COc1ccc(CCC(=O)Nc2cc3c4c(c2)CC(=O)N4CCC3)cc1,·,-5%[46.1 µM],-11%,-5%,3%,-20%,·,·
C=CCNC(=O)COC(=O)COc1ccc(Cl)cc1,·,20%[46.1 µM],-2%,15%[46.1 µM],0%,-4%,·,·
Cc1ccccc1NC(=S)N(CCN1CCCCC1)Cc1ccco1,·,-2%[46.1 µM],-7%,1%[46.1 µM],0%,-25%,-5%,·
CC(C)C(C(=O)NCC1CCCO1)N(C(=O)CNS(=O)(=O)c1ccc(F)cc1)C1CCCCC1 (stereo not drawn),·,·,4%,4%[46.1 µM],3%,-2%,4%,·
CCOC(=O)c1ccc2c(c1)N(CC(=O)N(C)c1ccccc1)C(=O)c1ccccc1S2,-8.1%,-26%[46.1 µM],1%,·,·,·,·,?
CC(C)CN(C(=O)CN1CCN(c2ccccc2O)CC1)c1c(N)n(CC(C)C)c(=O)[nH]c1=O,-2.2%,3%,-11%,-20%,-9%,3%,4%,-3%
CC(=O)c1cc2c(cc1NS(=O)(=O)c1ccc(C)cc1)OCO2,-2.3%,-13%,18%,2%,2%,2%,5%,-3%
COc1ccc(/C=N\NC(=O)c2ccccc2OC)cc1COc1c(F)c(F)c(F)c(F)c1F,·,-22%,-17%,?,2%,-9%,-35%,·
O=C(CN1C2CCC1CC(NC(=O)Nc1ccccc1)C2)NCc1ccco1 (stereo not drawn),-1.9%,15%,1%,-4%,6%,-14%,-9%,7%
COc1ccccc1NC(=O)c1c(NCc2ccc(OC)c(OC)c2OC)sc2c1CCC2,-4.1%,?,-20%,·,·,·,·,-4%
Cc1ccc(NNC(=O)Nc2ccc(Cl)cc2)nn1,·,9%[46.1 µM],20%,4%[46.1 µM],-17%,2%,-4%,·
C=CCNS(=O)(=O)c1ccc(C(=O)OCc2cc(=O)oc3cc(OC)ccc23)cc1,·,-14%,5%,?,-3%,13%,13%,·
COc1ccc(NC(=O)C2CCN(c3cc(C)nc4c(-c5ccc(Cl)cc5)c(C)nn34)CC2)cc1,-1.3%,14%[46.1 µM],10%,10%[46.1 µM],·,·,·,-3%
CCOC(=O)CNC(=O)Nc1cccc(Cl)c1C,-1.7%,8%,20%,-6%,4%,-6%,1%,7%
CCOC(=O)N/N=C\c1ccc(OC(=O)c2ccc3c(c2)OCO3)cc1,·,1%[46.1 µM],4%,16%[46.1 µM],-2%,-26%,·,·
O=S(=O)(c1cc(F)cc(F)c1)N1CCN(c2ncccn2)CC1,0.7%,-8%,-29%,13%,1%,3%,-4%,3%
CC(C)C[C@@H](CO)N1CCNCCC1=O,·,·,-8%,·,0%,5%,6%,·
CCCC1CCc2c(sc(N)c2C(N)=O)C1 (stereo not drawn),-8.5%,?,-10%,?,10%,2%,8%,?

# Carrying on.
SMILES,Cruzain inh Det,Lassa entry inh,2A StopGo,MARV entry inh,SARS PLpro yeast,RE007 growth inh,NS1 inh,Cruzain inh noDet
c1ccc(CC2CCN(C(c3cccs3)c3nnnn3C3CCCC3)CC2)cc1 (stereo not drawn),-2.4%,?,·,?,-6%,2%,-31%,-2%
CCOC(=O)c1sc(N)c(C(=O)OCC)c1COC(=O)C1CC(=O)N(Cc2ccco2)C1 (stereo not drawn),-3.2%,10%,-12%,-11%,5%,2%,-11%,?
Cc1ccc(C)c(OCC(=O)Nc2ccccc2C(=O)N2CCOCC2)c1,·,-7%,-8%,-10%[46.1 µM],-1%,7%,-8%,·
CCOCCc1nn2c(=O)cc(COC(=O)C3CCCCC3)nc2s1,-4.0%,-9%[46.1 µM],-2%,·,·,·,·,-3%
COc1cc(C(=O)O[C@H]2C/C(C)=C/CC[C@]3(C)O[C@@H]3C(O)C2C(C)C)cc(OC)c1OC (stereo partly drawn),·,?,-25%,?,9%,2%,-10%,·
CC(C)=CCN1CCN(CCCc2ccccc2)CC1CCO (stereo not drawn),·,·,-19%,·,-2%,10%,12%,·
Cc1cc(C)c2nc(N3CCCC(C(=O)NCCN4CCOCC4)C3)sc2c1 (stereo not drawn),0.0%,?,·,5%,8%,-10%,-14%,-7%
Cc1ccc(NC(=O)CSc2nnc(CNC(=O)c3ccco3)o2)cc1Cl,·,·,-12%,·,1%,10%,?,·
CCC1Oc2ccc(C)cc2N(CC(=O)NCc2ccc(OC)cc2)C1=O (stereo not drawn),-3.3%,-5%[46.1 µM],-6%,9%[46.1 µM],·,·,·,-11%
CCCCCCN1C2=NCCN2c2ccccc21,0.0%,-26%,?,?,0%,-14%,-3%,-6%
CN1N=C(C(=O)N2CCc3c([nH]c4ccccc34)C2c2ccccc2Cl)CCC1=O (stereo not drawn),·,?,64%[activator],?,-1%,3%,8%,·
Cc1n[nH]c(C)c1Cc1c(F)cccc1Cl,·,·,-9%,·,18%,10%,-2%,·
COc1ccc(C(=O)NC2CCSC2=O)cc1 (stereo not drawn),2.8%,?,37%[activator],?,16%,9%,6%,3%

# Screening data from PubChem.
